Menin-MLL FL inh: inhibitors of human menin-MLL interaction, wild-type MLL peptide; FP activity change, % at 61.4 µM; Fluorescence polarization, fluorescein-MLL peptide displacement from menin; 290,000 tested, under 10 active; AID 1766; inconclusive = falling polarisation curve, or a change in total fluorescence; inactive = total fluorescence flat and polarisation flat or rising; no compound was filed as active; the % refers to the polarisation; negative = inhibition;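 further: % of control where 0% means no effect; inhibitors lower the polarisation; unlabelled MLL peptide was the positive control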
PINK1 modulator: modulators of PINK1 expression. PINK1 immunofluorescence, high-content cytometry, 24 h. Potency, µM (highest dose often 76.6 µM), for inactives: at the top dose activation (PINK1 increase), usual class: activators. 410,000 compounds, 0.2% hits; active = well fitted activation curve with a large enough effect; inconclusive = small, poorly fitted or top-dose-only effect; inactive = flat fitted curve, though single readings scatter; cell line not stated here;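 further: potency means the concentration at half of the fitted maximal effect; % of control where 0% means no effect; nearly all actives have a fitted effect of over 65% in size; a mitochondrial uncoupler was the plate control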
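Fluorescence from anti-PINK1 antibody, together with nuclear and cell stains, was scanned on a laser-scanning cytometer. Before staining, stable-line cells were incubated 24 hours with compounds at 5 concentrations; primary antibody 12 h at 10 degrees C.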
Sfp PPTase inh: Sfp phosphopantetheinyl transferase inhibition; Q9F4F7; Biochemical Sfp PPTase activity, qHTS; Potency, µM, for inactives: max response, negative = inhibition, most hits filed as inhibitors; 310,000 compounds, 3.5% hits; active means well fitted inhibition curve with a large enough effect; inconclusive means small, poorly fitted or top-dose-only effect, or another doubt; inactive means no such curve, though single readings can be large or run the other way;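 further: the enzyme is Sfp with the accession as filed and its product quenches rhodamine fluorescence; potency means the concentration at half of the fitted maximal effect; 0% = enzyme reaction without inhibitor and -100% = no enzyme wells; top concentration of the series not given in the record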
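Fluorescence-quenching assay with 15 nM Sfp, 5 uM rhodamine-CoA and 12.5 uM BHQ-2-labelled ybbR peptide in pH 7.6 Hepes/MgCl2 buffer. Enzyme was pre-incubated with compound for 15 min at room temperature. Rate was taken from the 30-min fluorescence change (525/598 nm).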
TRPML1 agonist: activates the human TRPML1 channel. Q9GZU1. TRPML1-expressing cells, Ca2+ dye fluorescence, FDSS; host cell line not named in the record; reference of the full effect not given here. activation, % (test concentration not listed). 410,000 compounds, 0.12% hits; in the data active = activation above about 50%; inconclusive = about 30% to 50%; inactive = below about 30%; further: 0% is about no effect; the text of the record puts the active cut at 80%
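In this qHTS format, compounds were pin-transferred onto Ca8-dye-loaded TRPML1-DL cells induced with Tet overnight, and intracellular Ca2+ fluorescence was recorded kinetically for 110 s after a 10 s baseline. A subsequent 4uM final 54-4 (EC80) addition followed by a second 110 s read served as the antagonist phase.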
ClpP mod: qHTS Assay for Activators of ClpP; ATP-dependent Clp protease proteolytic subunit (Bacillus subtilis (strain 168)), P80244; purified B. subtilis ClpP, FRET peptide cleavage, 20 min; Potency, µM (top dose mostly 57.5 µM), for inactives: at the highest dose activity change, negative = active; 340,000 compounds, 1.9% hits; active = well fitted falling curve with a large enough effect; inconclusive = small, poorly fitted or top-dose-only effect; inactive = no such curve, though single readings can be large or run the other way; further: potency means the concentration at half of the fitted maximal effect; the source files actives as falling curves though it sought activators and does not explain the sign; nearly all actives have a fitted effect of over 65% in size; many hits overshoot -100%
Target sequence (P80244 whole entry, looked up): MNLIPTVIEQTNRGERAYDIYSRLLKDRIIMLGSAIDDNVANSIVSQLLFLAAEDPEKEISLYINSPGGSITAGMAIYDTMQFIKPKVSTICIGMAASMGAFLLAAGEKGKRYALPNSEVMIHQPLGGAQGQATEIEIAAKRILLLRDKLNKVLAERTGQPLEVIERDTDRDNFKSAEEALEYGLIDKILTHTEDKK
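FRET quenching reversal measured ClpP activation: 10 microg/mL B. subtilis ClpP at pH 8 with the FRET-FV decapeptide, read at 430 nm after 320 nm excitation. The 20-min minus 0-min signal was scaled between DMSO/no-enzyme wells and ADEP (5.8 microM final).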
TRPML1 inh: blocks the human TRPML1 channel; Q9GZU1; TRPML1-inducible cells, Ca2+ dye fluorescence, FDSS; stronger effect = lower value; inhibition of EC80 agonist-evoked calcium signal; activity change, negative = inhibition, % (concentration not given with the values); 390,000 compounds, 0.02% hits; in the data active means activity change below about -50%; inconclusive means about -30% to -50%; inactive means above about -30%;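 further: stimulus is agonist 54-4 at its EC80 concentration; on the % scale 0 is the no-effect control and ±100 the full control effect; the text of the record puts the active cut at -80%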
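Tet-induced TRPML1-DL cells loaded with Ca8 no-wash calcium dye were read kinetically on FDSS. Compound addition was followed by EC80 agonist 54-4 (4 uM final); inhibition was read over 110 s.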
TRPV1 potentiator: human TRPV1 potentiation; TRPV1-expressing cells, Fluo-8 calcium influx, capsaicin EC20 potentiation; host cell line not named in the record; control for the full effect not named in the record; Q8NER1; potentiation, % at 8.33 µM; 320,000 compounds, 0.02% hits; active means potentiation above 80%; inconclusive means 30% to 80%; inactive means below 30%; further: 0% is about no effect
Target sequence (Q8NER1 whole entry, looked up): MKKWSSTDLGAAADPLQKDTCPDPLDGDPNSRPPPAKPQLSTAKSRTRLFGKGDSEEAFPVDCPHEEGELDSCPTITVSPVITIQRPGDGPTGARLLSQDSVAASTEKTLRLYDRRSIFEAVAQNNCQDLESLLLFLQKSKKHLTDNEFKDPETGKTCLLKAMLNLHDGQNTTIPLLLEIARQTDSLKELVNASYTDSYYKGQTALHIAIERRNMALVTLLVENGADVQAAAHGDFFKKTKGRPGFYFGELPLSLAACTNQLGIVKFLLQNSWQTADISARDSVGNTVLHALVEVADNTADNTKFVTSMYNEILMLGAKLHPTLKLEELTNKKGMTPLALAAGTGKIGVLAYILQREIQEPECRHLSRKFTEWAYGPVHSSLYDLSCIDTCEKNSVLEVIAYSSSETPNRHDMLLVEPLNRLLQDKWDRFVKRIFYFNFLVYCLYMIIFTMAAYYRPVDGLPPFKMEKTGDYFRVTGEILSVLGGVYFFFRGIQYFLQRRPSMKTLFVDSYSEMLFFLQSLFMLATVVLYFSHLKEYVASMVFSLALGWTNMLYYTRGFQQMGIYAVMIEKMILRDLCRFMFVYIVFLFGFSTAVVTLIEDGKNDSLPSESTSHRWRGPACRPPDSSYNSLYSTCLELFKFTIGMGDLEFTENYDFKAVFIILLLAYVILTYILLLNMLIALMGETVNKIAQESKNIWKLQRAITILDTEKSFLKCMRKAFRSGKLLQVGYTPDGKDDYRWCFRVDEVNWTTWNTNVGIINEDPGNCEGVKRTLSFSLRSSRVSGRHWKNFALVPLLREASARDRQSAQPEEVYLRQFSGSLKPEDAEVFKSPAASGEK
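Fluo-8 calcium influx in TRPV1-expressing cells, kinetic read (ex 480/em 520 nm). Compound added and read 3 min for agonist activity, followed by capsaicin at EC20 final and 2 min further read for enhancement.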
* hit, by the source's call; ? = inconclusive; / = not tested or not shown; [ ] = another dose, or the depositor's remark.

SMILES	Menin-MLL FL inh	PINK1 modulator	Sfp PPTase inh	TRPML1 agonist	ClpP mod	TRPML1 inh	TRPV1 potentiator
Cc1nnc(N2CCCC(C(=O)NCc3ccccc3F)C2)c2nn(-c3ccc(Cl)cc3)c(C)c12 (configuration not stated)	/	0.4%	/	0.2	?	11	/
O=C(CNc1ccc(F)cc1)N/N=C/C1CC=CCC1 (configuration not stated)	26	1.2%	6%	0.2	/	-11	12
CC(C)Cc1c(O)nc(SCCN2CCOCC2)[nH]c1=O	2.5	0.5%	7%	-1.0	-0.3%	2	4
O=C(c1ccc2c(c1)N(Cc1ccccc1F)C(=O)c1ccccc1S2=O)N1CCCCC1 (configuration not stated)	/	3.3%	/	-1.0	-0.7%	2	/
CCOc1ccc(-c2nnc(SCC(=O)NC3CC3)o2)cc1	/	0.9%	/	0.0	-0.7%	-18	-16
C/C(CCc1ccco1)=N\NC(=O)CNc1cccc2ccccc12	2.9	-0.6%	-17%	0.3	3.5%	-20	-3
O=C(NCCO)c1cc2c([nH]c3ccccc32)c(-c2ccc(F)cc2)n1	1.3	1.5%	-12%	1.3	/	27	5
Cc1ccccc1-c1nnc(SCC(=O)NC2CCCC2)o1	-0.6	-1.7%	5%	-0.4	/	-5	-11
COCCCNC(=O)CCC(=O)N1Cc2cccc(OC)c2Oc2ncccc21	/	-0.3%	/	1.4	0.4%	5	/
S=C1NCCOCCOCCOCCOCCNC(=S)NCCOCCOCCOCCOCCN1	3.0	-0.4%	13%	-0.5	-0.3%	5	1
CCOC(=O)C1(C)CCN1C(=O)c1ccc(OC)cc1OC (configuration not stated)	/	0.8%	/	-1.0	-11%	/	/
O=C(Nc1ccc(F)c(Cl)c1)N1CCC(CN2CCc3ccccc3C2)CC1	/	1.3%	/	1.1	-7.4%	-2	/
CCOC(=O)c1ccc(N2C(=O)CC(N3CCC(Nc4ccc(F)cc4)CC3)C2=O)cc1 (configuration not stated)	1.2	-1.9%[38.3 µM]	6%	0.9	-2.7%	43	2
Cc1nn2c(N3CCN(C(=O)c4ccco4)CC3)cc(C(C)(C)C)nc2c1-c1ccccc1	2.8	4.4%	4%	0.0	-6.4%	-5	-23
CCOc1ccccc1N(CC(=O)NC(C)(C)C)C(=O)c1ccc(CN2CCOCC2)o1	0.0	0.1%[38.3 µM]	-10%	1.8	-0.3%	2	-20
Cc1cc(C)n(CCCNC(=O)C2CC(=O)N(Cc3ccccc3)C2)n1 (configuration not stated)	/	2.6%	/	-0.4	1.1%	18	8
CCC(C(=O)c1ccc(O)cc1)c1ccccc1 (configuration not stated)	1.7	1.6%	14%	-0.8	-5.1%	27	-10
O=C(c1cc2ccccc2[nH]1)N1CCOCC1	4.6	-0.1%	18%	-0.4	-2.8%	-8	1
Cc1ccccc1NC(=O)c1cccc(NC(=O)CCC(=O)O)c1	-4.9	1.9%	14%	-0.8	/	-3	3
CC(C)CNC(=O)C1(C)CCCN1C(=O)c1cncc(Br)c1 (configuration not stated)	/	1.1%	/	-0.4	-1.6%	/	/
O=C(CSc1ccc(F)cc1)N1CCC(c2nc3ccccc3s2)CC1	14	-1.5%	-9%	-0.5	2.8%	0	?
CCOc1cc2[nH]c(=O)n(Cc3ccc(C(=O)NCCCN4CCC(C)CC4)cc3)c(=O)c2cc1OCC	1.7	-0.3%	10%	-1.2	/	12	1
CCOc1ccc(-c2nnc3ccc(SCC(=O)N4CCN(c5ccccc5)CC4)nn23)cc1	/	4.8%	/	-0.3	-0.9%	36	/
O=C(CNC(=S)NC(=O)c1ccc(Br)o1)c1ccccc1	3.0	18%	19%	-0.4	0.6%	-2	7
COC(=O)c1ccc(NC(=O)CC2C(=O)N(c3ccc(C)cc3)C(=O)N2CC(C)C)cc1 (configuration not stated)	3.0	-1.7%[38.3 µM]	5%	1.5	-4.3%	0	1
Cc1ccc(CCN2CC(C(=O)NCCCN3CCC(C)CC3)CC2=O)cc1 (configuration not stated)	-1.3	0.3%	2%	0.9	1.4%	16	2
Cc1ccc(C)c(Cn2c(=O)n(CCCCC(=O)NCc3ccc4c(c3)OCO4)c(=O)c3ccccc32)c1	/	0.7%	/	0.6	0.4%	30	/
O=C(N/N=C/c1cccc([N+](=O)[O-])c1)c1cc(-c2ccc3c4c(cccc24)CC3)n[nH]1	1.7	2.8%	3%	1.0	-1.5%	-19	-9
COc1ccc(C(=O)N2CCOC2CNC(=O)C(=O)NCc2ccccc2)cc1 (configuration not stated)	/	17%	/	-0.7	1.0%	4	/
Cc1ccc2ccccc2[n+]1[O-]	/	-0.3%	/	-0.3	-1.1%	/	/
COc1cccc(-n2c(N)c(C#N)c3ccc([N+](=O)[O-])cc3c2=O)c1	10	/	15%	/	/	/	-9
CCOC(=O)C1=C(c2ccccc2)OC(N)=C(C#N)C1c1ccc(Br)s1 (configuration not stated)	17	5.1%	3%	-0.7	/	7	-4
COc1ccc(CC(=O)Nc2nc3c(s2)CCCC3)cc1	/	-0.5%	/	2.4	-2.6%	0	/
Cc1ccc(NCC(=O)NNC2=NCCC2)c(C)c1	4.9	0.4%	-12%	-0.1	-3.3%	-13	1
Cc1cc(NC(=O)CSc2nc(=O)n(CCN(C)C)c3c2CCCC3)no1	/	2.2%	/	-0.9	-0.1%	33	1
CCN(CC)C(=O)c1ccc2sc([C@@H]3O[C@H](CO)[C@H](O)[C@H](O)[C@H]3O)nc2c1	/	0.4%	/	-0.3	-8.1%	/	/
COc1ccc(OCC(=O)NCCc2ccc(S(N)(=O)=O)cc2)cc1	-4.7	1.2%	9%	-0.1	-2.1%	5	-26
CCOC(=O)c1ccc(N2N=C(C)/C(=C/C=C/c3ccco3)C2=O)cc1	-0.5	11%	-2%	-1.0	1.4%	3	-14
CN(C)S(=O)(=O)c1ccc(N2CCOCC2)c(C(=O)NCc2ccc3c(c2)OCO3)c1	/	2.2%	/	-0.6	-4.0%	12	-5
CC(=O)Nc1ccc(Cc2ccc3[nH]c(=O)cc(C)c3c2)cc1	4.1	/	6%	/	/	/	?
O=C1CC(c2ccc(F)cc2)CC(O)=C1C1NCCc2ccccc21 (configuration not stated)	3.2	-2.0%	9%	1.8	-1.0%	-7	7
Cc1cc(S(=O)(=O)N2CCCc3ccccc32)ccc1-n1cnnn1	-0.2	4.6%	1%	-0.1	/	-5	2
COc1ccccc1NC(=O)COc1ccc(C(=O)NCc2ccccc2)cc1OC	/	-0.6%	/	1.5	0.0%	5	14
Cc1ccc(/C=N/NC(=O)C(C)NC(=O)c2ccccc2)cc1 (configuration not stated)	0.3	-0.9%	-8%	0.6	/	-8	1
CN(CC(=O)Nc1ccc2c(c1)OCO2)CC(=O)Nc1ccc(F)c(F)c1F	/	1.4%	/	-0.6	-0.4%	-2	/
COCCOCCn1c(CCCO)nc2ccccc21	-2.3	0.0%	23%	-0.9	-1.3%	-6	-2
COc1ccccc1-c1nc(SCC(=O)NCc2ccc(C)cc2)c2c(=O)n(C)c(=O)n(C)c2n1	/	-0.2%	/	-0.6	0.7%	4	/
Cc1ccc2nc(N=C(N)N)nc(C)c2c1	-0.3	-1.3%	23%	0.0	/	9	14

A run of entries taken from the entries so far, as a working copy:
SMILES	Menin-MLL FL inh	PINK1 modulator	Sfp PPTase inh	TRPML1 agonist	ClpP mod	TRPML1 inh	TRPV1 potentiator
COc1ccccc1-c1nc(SCC(=O)NCc2ccc(C)cc2)c2c(=O)n(C)c(=O)n(C)c2n1	/	-0.2%	/	-0.6	0.7%	4	/
Cc1ccc2nc(N=C(N)N)nc(C)c2c1	-0.3	-1.3%	23%	0.0	/	9	14

(list continues)
SMILES	Menin-MLL FL inh	PINK1 modulator	Sfp PPTase inh	TRPML1 agonist	ClpP mod	TRPML1 inh	TRPV1 potentiator
CC[N+](C)(CC)CC(O)COCC1COc2ccccc2O1 (configuration not stated)	-0.7	-0.3%	11%	-0.1	-14%	-12	1
COc1cc(OC)c(NC(=O)CSc2nccn2C)cc1Cl	/	1.1%	/	1.7	0.3%	16	/
COc1ccc(Br)c(C(=O)OCC(=O)N2CCc3ccccc32)c1	/	5.1%	/	0.4	0.6%	-3	/
O=C(NCc1nnc2c(C(F)(F)F)cc(Cl)cn12)C1CCCC1	-0.2	-0.2%	28%	0.0	-14%	-3	11
COc1ccccc1NC(=O)C(C)OC(=O)Cc1ccsc1 (configuration not stated)	/	0.7%	/	0.3	-0.9%	-10	-2
O=C(O)C1CC(=O)N(CCc2c[nH]c3ccccc23)C1 (configuration not stated)	0.7	0.3%	4%	-0.4	-1.0%	9	4
Cc1ccc(-c2cc(Cc3ccc(N(C)C)cc3)c(=O)[nH]n2)cc1	2.2	1.2%	17%	1.2	2.1%	-6	-10
COc1ccc(S(=O)(=O)N2CCC(NC(=O)c3cccc(F)c3)CC2)cc1	-1.7	2.0%	2%	-1.6	1.7%	-8	?
Cc1c(Cl)cccc1NC(=S)NC(=O)CCN1C(=O)c2ccccc2C1=O	4.5	?	11%	1.0	1.3%	-9	-4
O=C(CNS(=O)(=O)c1ccc(Br)s1)Nc1ccc2c(c1)OCCO2	-1.8	7.3%[38.3 µM]	3%	-0.7	-0.1%	39	-9
O=C1CCc2cc(S(=O)(=O)N3CCN(c4ccc(F)cc4)CC3)cc3c2N1CC3	/	2.8%	/	0.0	-4.5%	14	7
O=c1cc(Nc2cccc(Br)c2)[nH]c(=O)[nH]1	-0.3	-0.3%	6%	0.5	/	-6	6
COc1ccc(N2C(=O)CC(Cc3ccccc3OC)C2=O)cc1 (configuration not stated)	3.8	1.4%	4%	0.3	0.1%	-5	6
CC(NC(=O)c1cc(=O)[nH]c2ccccc12)c1ccc(F)cc1F (configuration not stated)	-25	0.9%	11%	1.4	/	3	-6
CCCCOc1ccccc1C(=O)N(Cc1cccc(F)c1)C1CCS(=O)(=O)C1 (configuration not stated)	/	-1.5%	/	-0.7	-0.6%	-16	/
CC(C)(C)c1ccc(C(O)c2ncc(-c3ccc4ccccc4c3)[nH]2)cc1 (configuration not stated)	/	15%	/	-0.2	5.2%	/	/

Structures from the list above that contain a cyano group:
SMILES	Menin-MLL FL inh	PINK1 modulator	Sfp PPTase inh	TRPML1 agonist	ClpP mod	TRPML1 inh	TRPV1 potentiator
COc1cccc(-n2c(N)c(C#N)c3ccc([N+](=O)[O-])cc3c2=O)c1	10	/	15%	/	/	/	-9
CCOC(=O)C1=C(c2ccccc2)OC(N)=C(C#N)C1c1ccc(Br)s1 (configuration not stated)	17	5.1%	3%	-0.7	/	7	-4
